OX1R antag-1: antagonists of human orexin 1 receptor (OX1R); Orexin/Hypocretin receptor type 1 (Homo sapiens), O43613; OX1R-expressing cells, FRET antagonist read-out; inhibition, % at 6.6 µM; 330,000 tested, 1.8% active; AID 485270, 2010; in the data active = inhibition mostly above about 38%, no sharp cut-off; inactive = mostly below about 40%;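 also: 0% = agonist challenge alone and 100% = reference antagonist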
Target sequence (O43613 whole entry, looked up): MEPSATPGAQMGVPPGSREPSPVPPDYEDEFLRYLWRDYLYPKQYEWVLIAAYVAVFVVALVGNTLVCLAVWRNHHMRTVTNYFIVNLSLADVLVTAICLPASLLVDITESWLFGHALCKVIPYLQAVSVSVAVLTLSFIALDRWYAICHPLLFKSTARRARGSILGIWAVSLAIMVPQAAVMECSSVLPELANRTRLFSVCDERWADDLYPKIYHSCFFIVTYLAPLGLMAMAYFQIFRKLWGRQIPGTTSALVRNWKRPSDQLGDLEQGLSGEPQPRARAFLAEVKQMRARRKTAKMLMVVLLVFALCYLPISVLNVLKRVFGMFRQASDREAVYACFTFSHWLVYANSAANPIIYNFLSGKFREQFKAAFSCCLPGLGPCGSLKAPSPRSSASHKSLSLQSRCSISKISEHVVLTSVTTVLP
OX1R antag-2: OX1R (HCRTR1) antagonists, primary screen, fluorescence, CHO/OX1R cells, Fluo-8 calcium, orexin A; Orexin/Hypocretin receptor type 1 (Homo sapiens), O43613; Fluo-8 calcium fluorescence; inhibition, % at 5 µM; 330,000 tested, 0.43% active; AID 434989, 2010;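 active = inhibition above its plate's threshold, mean inhibition of all tested compounds on the plate plus 3 SD, cut at about 37% in these data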;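 also: 0% = orexin A challenge wells and 100% = SB-334867-A antagonist wells; not every result past the cut was called active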
* hit, by the source's call. Only part of the results is shown; most or all hits stand in other tables.

SMILES,OX1R antag-1,OX1R antag-2
COc1ccc(Cl)cc1NC(=O)CN(C)C(=O)c1ccc(N2CCCCCC2)c([N+](=O)[O-])c1,24,-15
Cn1c(C(=O)NCCc2ccsc2)cc2c(=O)n(C)c3ccccc3c21,15,-20
Cc1cccc(C(=O)NC2CCCCCCC2)c1,3,-32
CCOc1ccc(-c2cc(N3C(=O)Nc4ccccc4N3O)n[nH]2)cc1,8,-14
CCC1CCc2c(sc(N)c2C(N)=O)C1 (stereo not given),6,-31
Cc1cc(-c2nnnn2-c2ccc(F)cc2)no1,6,4
COc1ccc(C2CC2C(C)=O)cc1 (stereo not given),2,2
Cc1ccc(C(=O)NNC(=O)C2CCN(Cc3ccccc3)CC2)cc1,10,-15
CC(CN1CCCC1)OC(=O)c1ccc(Cl)cc1Cl (stereo not given),9,-12
O=C(CCN1C(=O)C2(OCCO2)c2ccccc21)c1ccccc1,9,-17
COC(=O)C1=C(N)Oc2c(oc(CO)cc2=O)C1c1ccccc1F (stereo not given),-1,-11
COc1ccc(S(=O)(=O)NCc2ccccn2)cc1NC(=O)c1ccc(Cl)cc1,18,-20
Cc1cc(C)c(OCC(=O)N/N=C/c2ccco2)c(C)c1,12,-3
COc1cc(OC)cc(-c2n[nH]c(=S)n2-c2cc(OC)ccc2OC)c1,15,-6
CC1=NN(c2ccccc2)C(=O)/C1=C\c1cc(C)n(-c2ccccc2)c1C,18,-1
COC(=O)C1=C(C)N(C)C(=O)NC1c1cc2c(cc1Br)OCO2 (stereo not given),0,-13
Cn1ncc(N=Cc2ccccc2)c1C(N)=O,-5,-6
Cc1cccc(NS(=O)(=O)c2csc(C(N)=O)c2)c1,1,-27
Cc1ccc(Cl)cc1N1CCN(C2CCCCC2NS(=O)(=O)c2ccccc2)CC1 (stereo not given),17,-21
Cc1ccc(-c2nc3ccccc3c(=O)n2CCCn2ccnc2)cc1,17,-30
COc1ccccc1CNC(=O)COC(=O)c1cc(-c2ccco2)nc2ccccc12,20,2
O=C(C1=C[C@@H](c2ccccc2)C[C@@H](OCc2ccc(CO)cc2)O1)N1CCCCCCC1,23,-9
COc1cccc(-c2cc(=O)[nH][nH]2)c1,3,-7
COc1ccc(C(F)(F)F)cc1N/C=C\c1nnnn1-c1ccc(C)cc1,17,-34
O=C(Nc1ccc(Cl)cc1C(=O)NCC1CCCO1)c1ccc(Cl)cc1Cl (stereo not given),13,-35

New compounds follow.
SMILES,OX1R antag-1,OX1R antag-2
CN(CC(=O)Nc1ccc(S(=O)(=O)N2CCCC2)cc1)CC(=O)Nc1cccc(F)c1,15,-26
CCC/C(=N\NC(=O)c1ccc(OC)c(OC)c1)c1ccccc1,18,-20
COC(=O)c1cc(OC)c(OC)cc1-n1cnc2cc(OC)c(OC)cc2c1=O,4,-26
COc1ccc(NC(=O)CSc2nnc(N)s2)c([N+](=O)[O-])c1,27,-15
COc1ccc(/C=C/C(=O)c2ccccc2)cc1Cn1nnc2ccccc21,16,-17
COCCN(C(=O)Nc1ccc(OC)cc1OC)C1CCN(C(C)=O)CC1,20,-5
CC1=C(C)CC(C(=O)Nc2cccc([N+](=O)[O-])c2)C(C(=O)O)C1 (stereo not given),32,5
O=C1[C@@H]2CSCN2C(=O)CN1Cc1ccccc1F,1,-8
O=C(COC(=O)/C=C/c1ccccc1)NCCNC(=O)COC(=O)/C=C/c1ccccc1,9,-21
Cc1ccc(C(=O)CC2(O)C(=O)N(C)c3ccccc32)o1 (stereo not given),13,9
COC(=O)c1c(NC(=O)CCS(=O)(=O)c2ccccc2)sc2c1CCN(C)C2,9,-14
O=C(NC(=S)Nc1ccc(Cl)cn1)C(c1ccccc1)c1ccccc1,3,-31
O=C(NCc1ccco1)c1cc(-c2ccc3c(c2)OCO3)on1,15,0
O=C(c1cc2nc(-c3ccc(Cl)cc3)cc(C(F)(F)F)n2n1)N1CCOCC1,17,-20
COc1ccc(OC)c(C(=O)/C=C/c2cccnc2)c1,2,-7
CC(=O)C1=C(C)NC(SCC(=O)c2ccc(F)cc2)=C(C#N)C1CC(C)C (stereo not given),16,-54
O=C(COC(=O)CCSc1ccccc1)NCc1ccccc1,17,-5
COc1ccc(NC(=O)Cn2nnc(C(=O)NCc3cccs3)c2N)cc1OC,-6,-15
Cc1cc(OCC(=O)Nn2cnnc2)ccc1Br,5,-11
Cc1n[nH]c(=O)c2c(NC(=O)CSc3c(Cl)cccc3Cl)oc(C)c12,27,-29
O=S(=O)(c1ccccc1)c1cnc(-c2cccnc2)nc1-c1ccccc1,6,-9
CC(C)Cn1c(N)c(C(=O)COC(=O)C2CCCCC2)c(=O)n(C)c1=O,25,-1
CC1=C(C(=O)OCc2ccccc2)C(c2ccccc2)NC(=O)N1CCCC(=O)O (stereo not given),11,-4
O=C(Nc1nc(-c2cccs2)cs1)c1ccc(Cl)s1,19,-29
CCOc1ccc(NC(=O)CN2C(=O)NC(CCSC)C2=O)cc1 (stereo not given),10,-5

20 entries from above, sorted by formula weight, highest first.
SMILES,OX1R antag-1,OX1R antag-2
O=C(COC(=O)/C=C/c1ccccc1)NCCNC(=O)COC(=O)/C=C/c1ccccc1,9,-21
COc1ccc(NC(=O)Cn2nnc(C(=O)NCc3cccs3)c2N)cc1OC,-6,-15
O=C(c1cc2nc(-c3ccc(Cl)cc3)cc(C(F)(F)F)n2n1)N1CCOCC1,17,-20
CC1=C(C(=O)OCc2ccccc2)C(c2ccccc2)NC(=O)N1CCCC(=O)O (stereo not given),11,-4
COC(=O)c1cc(OC)c(OC)cc1-n1cnc2cc(OC)c(OC)cc2c1=O,4,-26
Cc1n[nH]c(=O)c2c(NC(=O)CSc3c(Cl)cccc3Cl)oc(C)c12,27,-29
CC(=O)C1=C(C)NC(SCC(=O)c2ccc(F)cc2)=C(C#N)C1CC(C)C (stereo not given),16,-54
O=C(NC(=S)Nc1ccc(Cl)cn1)C(c1ccccc1)c1ccccc1,3,-31
COCCN(C(=O)Nc1ccc(OC)cc1OC)C1CCN(C(C)=O)CC1,20,-5
O=S(=O)(c1ccccc1)c1cnc(-c2cccnc2)nc1-c1ccccc1,6,-9
COc1ccc(/C=C/C(=O)c2ccccc2)cc1Cn1nnc2ccccc21,16,-17
CC(C)Cn1c(N)c(C(=O)COC(=O)C2CCCCC2)c(=O)n(C)c1=O,25,-1
CCOc1ccc(NC(=O)CN2C(=O)NC(CCSC)C2=O)cc1 (stereo not given),10,-5
O=C(COC(=O)CCSc1ccccc1)NCc1ccccc1,17,-5
CCC/C(=N\NC(=O)c1ccc(OC)c(OC)c1)c1ccccc1,18,-20
O=C(NCc1ccco1)c1cc(-c2ccc3c(c2)OCO3)on1,15,0
Cc1cc(OCC(=O)Nn2cnnc2)ccc1Br,5,-11
Cc1ccc(C(=O)CC2(O)C(=O)N(C)c3ccccc32)o1 (stereo not given),13,9
O=C1[C@@H]2CSCN2C(=O)CN1Cc1ccccc1F,1,-8
COc1ccc(OC)c(C(=O)/C=C/c2cccnc2)c1,2,-7

(continued)
Order of values – OX1R antag-1, OX1R antag-2
O=C(COc1ccc([N+](=O)[O-])cc1)N/N=C/c1ccccn1
 : 29, 4
CCOC(=O)N1CCN(S(=O)(=O)c2ccc(C)c(C)c2)CC1
 : 18, -25
CCOC(=O)c1c(-c2ccc(OC)cc2)csc1NC(=O)CCN1C(=O)c2ccccc2C1=O
 : 16, 12
CN(C)c1ccc(CC2C(=O)Nc3ccccc32)cc1 (stereo not given)
 : 28, -14
CCCNS(=O)(=O)c1ccc(CCC(=O)NCCc2ccc(OC)c(OC)c2)cc1
 : 14, -25
CCOC(=O)CC1Sc2ccccc2NC1=O (stereo not given)
 : 15, -13
Cn1c(=O)[nH]c(=O)c2c1nc(N1CCCCCC1)n2CCCSc1nnnn1-c1ccccc1
 : 0, -29
CN1c2ccccc2-c2nc3ccccc3n2C1c1ccccn1 (stereo not given)
 : 14, -46
Cc1noc(C)c1CSc1nnc2ccccn12
 : 18, -15
CC1CCCN(C2=NC(=O)/C(=C/c3cn(-c4ccccc4)nc3-c3cccc(S(=O)(=O)N(C)C)c3)S2)C1 (stereo not given)
 : 17, -20
CS(=O)(=O)N(Cc1ccccc1)c1ccc(C(=O)NCC2CCCO2)cc1 (stereo not given)
 : 14, -23
CCOC(=O)c1cc2n(c1C)-c1ccccc1C2=O
 : 26, -13
O=C1CCCN1CCCNC(=S)Nc1ccc(Cl)cc1Cl
 : 11, -5
CC(C)C(=O)Nc1ccnc(-c2cccnc2)n1
 : 7, -4
O=C(CN1CCN(c2ccccn2)CC1)Nc1ccc(Cl)c(C(F)(F)F)c1
 : 32, -16
COc1cccc(C(=O)NCc2nnc(SCC(=O)Nc3nccs3)n2-c2cccc(C)c2)c1
 : 3, -18
CCC1CCCCN1C(=O)CSc1nnc(CNC(=O)c2ccco2)o1 (stereo not given)
 : 3, -4
CC1(C)CC(=O)C2=C(C1)Nc1ccccc1NC2c1cccs1 (stereo not given)
 : 1, 11
Cc1cccc(C)c1-n1c(C)cc(/C=N/NC(=O)CSc2ncccn2)c1C
 : 28, -21
OCC1(Cc2ccccc2)CCCN(Cc2ccn[nH]2)C1 (stereo not given)
 : 14, -9
Cc1ccc(-c2noc(C3CCCN(C(=O)C4CCCCC4)C3)n2)o1 (stereo not given)
 : 1, -13
O=C1CC2(CCCC2)Oc2ccc(F)cc21
 : -1, -13
Cc1ccc(C(=O)Nc2ccc(S(=O)(=O)N3CCOCC3)cc2)cc1Br
 : -4, -27
C=CCn1c(=O)c2ccccc2n2c(SCC(N)=O)nnc12
 : 17, -6
COc1ccc(C(O)Cn2cc([N+](=O)[O-])nc2C)cc1 (stereo not given)
 : 16, -30
COC(=O)c1cc(=O)n2c(sc3ccccc32)c1C#N
 : 7, -1
Cc1ccc(CNC(=O)COC(=O)CSc2ccc(Br)cc2C)cc1
 : 4, -24
CCCCn1c(=N)c(S(=O)(=O)c2ccc(Br)cc2)cc2c(=O)n3cccc(C)c3nc21
 : 5, 0
CN(Cc1cccnc1)Cc1c(C(=O)N2CCc3ccccc3C2)nc2ccc(Cl)cn12
 : 16, -28
O=C(CSc1nnc(SCc2ccccc2)s1)N/N=C/c1c(Cl)cccc1Cl
 : 11, -24

Later entries:
Order of values – OX1R antag-1, OX1R antag-2
O=C(c1ccc(COCC(F)(F)F)cc1)N1CCN(c2ccccn2)CC1
 : 10, 7
O=Cc1cn(CCC(=O)O)nc1-c1cc2ccccc2o1
 : -8, 2
Cc1ccc(Oc2nnc(-c3ccc(C)cc3)c3ccccc23)cc1
 : 3, -28
COC(=O)C(Cc1cnc(Cl)s1)(C(=O)OC)c1ccc([N+](=O)[O-])cc1
 : 26, -18
Cc1ccc2nc(-c3ccc(O)cc3)c(Nc3ccc4c(c3)OCCO4)n2c1
 : 7, -26
COC(=O)CC(C(=O)Nc1cc(C(=O)OC)cc(C(=O)OC)c1)N1CCN(C)CC1 (stereo not given)
 : 3, -1
COc1ccc(NC(=O)C2CCCN(S(=O)(=O)c3ccc4c(c3)oc(=O)n4C)C2)c(OC)c1 (stereo not given)
 : 13, -24
NC(=O)Cn1c(=O)n(-c2ccccc2)c(=O)c2oc3ccccc3c21
 : 5, 1
COc1cc(CN2CCC(n3nccc3NC(=O)c3ccc4c(c3)OCO4)CC2)ccc1O
 : 21, 14
CC(OC(=O)c1cccc(O)c1)C(=O)N(C)Cc1ccccc1 (stereo not given)
 : 7, -3
COc1cc2c(cc1OC)C(C(=O)N1CCN(c3ccccc3)CC1)C(c1cccs1)N(C)C2=O (stereo not given)
 : 16, -47
CCOc1ccccc1NC(=O)CSc1nnnn1C1CCCC1
 : 22, -16
Cc1ccccc1N(C(=O)c1csnn1)C(C(=O)NC(C)(C)C)c1ccncc1 (stereo not given)
 : 15, -15
COC(=O)Nc1ccc(S(=O)(=O)N2CCCC(C(=O)Nc3cccc4c3OCCO4)C2)cc1 (stereo not given)
 : 9, 6
CCc1[nH]c(=S)c(C#N)c2c1CCCC2
 : 16, -6
COc1ccc(Cn2cnc3sccc3c2=O)cc1
 : 18, -13
CCN(CC)CCN1C(=O)C(=O)/C(=C(/O)c2ccc(OC)c(OC)c2)C1c1ccccn1 (stereo not given)
 : 52*, -1
CCN(CC1CCCN(CCc2cccc(F)c2)C1)C(=O)c1cc2ccccc2o1 (stereo not given)
 : 25, -26
Cc1nn(Cc2ccc(Cl)cc2)c(C)c1NC(=O)CCCn1nc([N+](=O)[O-])c(Cl)c1C
 : 7, -35
COc1cccc(CNC(=O)CCS(=O)(=O)c2ccc3c(c2)NC(=O)CO3)c1
 : 6, -18
CCN1C(=O)c2cccc3c(S(=O)(=O)Nc4nc(C)cs4)ccc1c23
 : 23, -20
COc1ccc(CCNC(=O)c2c(O)c3cccc4c3n(c2=O)CC4)cc1OC
 : 36, -6
Cc1nn(CC(=O)c2ccccc2Cl)c(C)c1[N+](=O)[O-]
 : 34, -27
CCOc1ccccc1NS(=O)(=O)c1ccc(-c2cnc(C3CC3)o2)cc1
 : 15, -5
Cc1cccc(OCCCC(=O)Nc2ccc(N(C)C)cc2)c1
 : 5, -27
CS(=O)(=O)N1CCc2cc(C(=O)N3CCN(c4ccccc4F)CC3)ccc21
 : 4, -18
O=C(CN1CCOCC1)Nc1cccc(Br)c1
 : 4, -5
CCC(C)C(Nc1ncnc2scc(-c3ccccc3)c12)C(=O)O (stereo not given)
 : 3, -4
Cc1cc(=O)oc2cc(OCC(=O)NC3CCCC3)ccc12
 : 12, -17
O=C(CCCn1c(=O)[nH]c2cc(Cl)ccc2c1=O)NCCC1=CCCCC1
 : 4, -2
COc1cccc(-n2nnc3c(=O)n(Cc4cccc(F)c4)cnc32)c1
 : 16, -1
COc1cc(C(F)(F)F)nc(-c2ccccn2)n1
 : 15, -15
CNc1cnn(-c2ccc(C)cc2)c(=O)c1Sc1ccc(C)cc1
 : 23, -24
